# Screening results deposited in PubChem BioAssay by several laboratories.
# PrP UTR inh: suppresses PrP 5' UTR mRNA reporter expression; cell-based PrP 5' UTR mRNA reporter, plate reader; inhibition, % (no concentration beside the values); 340,000 tested, 0.35% active;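 active means every replicate at 50% or more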;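 further: 0 = median of the neutral control wells; tested in H4 reporter cells; numbers are from one replicate; inactives centre near -14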
# Mtb hypoxia inh: reduces hypoxia-regulated biosensor signal in M. tuberculosis. 300,000 tested, 0.1% active. M. tuberculosis hypoxia-regulated fluorescent reporter, fluorescence. fluorescence inhibition, % (test concentration not listed);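 active means 35 to 45% if threefold the growth effect, above 45% if 1.5-fold the growth effect; inactive means the rest, general growth blockers included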;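 further: wells of about 50 µL received 100 nL stock; 0% = vehicle wells and 100% = reference inhibitor wells; whole bacteria with a GFP reporter of the hypoxia response; strong numbers were not always called active; many hits fall short of the cut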
# BJeLR lethal: BJeLR cell viability loss; BJeLR (HRASV12) viability, CellTiter-Glo ATP luminescence, 48 h; reference of the scale not given here; inhibition, % (concentration not given with the values); 300,000 tested, 0.17% active; AID 1554;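 active means replicate mean above 50%; inconclusive means above 50% but judged a plate artefact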;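 further: 50 nL library stock added to about 25 µL; numbers are from one replicate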
# Autofluor counter: compound fluorescence in toxin protease inhibitor counterscreen | compound autofluorescence counterscreen, microsphere flow cytometry; hits give high values | fluorescence intensity (concentration not given with the values) | 360,000 tested, 3.1% active | AID 624483;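 active means at least 3 SD above the mean of all compounds, about 16000 in these data; inconclusive means too few beads counted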;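 further: 100 nL of 1 mM stock went into each well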
# ugtP null kill: compounds lethal to S. aureus RN4220 ugtP deletion mutant; OD600 growth, 16 h; some inactives read as strong as hits; growth inhibition, % (test concentration not listed); 330,000 tested, 0.54% active; AID 1259309;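 active means z-score under -3 and OD600 up to 0.15 on both plates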;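 further: plate controls were untreated wells for no effect and antibiotic for full effect; wells of about 80 µL received 100 nL stock; the first replicate is given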
# Sa RN4220 lethal: S. aureus RN4220 growth inhibition | AID 1259311 | OD600, 16 h | inhibition, % (no concentration beside the values) | 330,000 tested, 0.33% active;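 active means z-score of -3 or lower and OD600 up to 0.18 on both plates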;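 further: plate controls were untreated cells for no effect and reference antibiotic for full effect; stock transfer was 100 nL into about 80 µL; one replicate is shown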
# Mtb hypoxia inh growth: also measured in Mtb hypoxia inh; calls as there; growth inhibition, %; measured here: M. tuberculosis growth (absorbance);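 0% = vehicle and 100% = reference antibiotic; read after six days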
# The depositor's hits bear a star; ? = inconclusive; / = no result given; & = joins results of further samples.
smiles	PrP UTR inh	Mtb hypoxia inh	Mtb hypoxia inh growth	BJeLR lethal	Autofluor counter	ugtP null kill	Sa RN4220 lethal
O=C(COC(=O)c1ccccc1OCc1ccccc1Cl)NC1CCS(=O)(=O)C1 (configuration not stated)	-14	12	8	/	3917	12	4.6
COc1cc(NC(=S)NCc2ccco2)cc(OC)c1	-25	14	6	16	3470	-1	-5.1
Cc1c(C(=O)Nc2ccccc2)c2cc(O)ccc2n1Cc1ccccc1	-24	-6	-2	8	3947	-1	4.8
COC(=O)CCC(=O)Nc1cccc(Cl)c1	-11	/	/	-1	3518	8	2.4
CCCn1c(SCC(=O)NCc2ccco2)nnc1C(C)C	-15	-2	6	0	4592	-4	-2.2
Cc1ccc(NC(=O)Nc2ccc(F)cc2F)c(OC(F)F)c1	-29	/	/	-3	4071	/	/
Cc1ccsc1C(=O)OCc1nc2ccccc2c(=O)[nH]1	-11	-1	14	/	19317*	-5	-3.7
COc1ccccc1NC(=O)CN1CCC(n2c(C)nc3cc(F)ccc32)CC1	-39	9	8	-13	3479	6	4.5
COc1ccc([N+](=O)[O-])cc1NC(=O)c1csc(C)c1	-22	7	-5	2	5153	3	2.4
COc1ccccc1NC(=O)CC1C(=O)NCCN1C(=O)Nc1ccc(Cl)c(Cl)c1 (configuration not stated)	-10	1	11	-6	?	-11	-8.0
CCOC(CNC(=O)Cn1nc(Cc2ccncc2)c2ccccc2c1=O)OCC	-22	-4	-6	4	2962	12	3.1
O=C(NNC1=Nc2cccc3cccc1c23)c1ccc(Br)cc1	9	23	33	-1	5427	-19	25
CCCC12CN3CCN(CC(C3)C1=NNC(=O)c1ccccc1Cl)C2	/	4	10	/	/	5	12
CC1CCCC(O)(C(C(=O)O)c2ccccc2)C1 (configuration not stated)	-12	14	11	/	3682	-2	3.8
CCN(CC)S(=O)(=O)c1cccc(NC(=O)/C=C/c2ccc([N+](=O)[O-])cc2)c1	-10	4	15	0	6944	-3	1.7
Cc1ccc(C(=O)NCCc2nnc3ccc(SCC(=O)Nc4ccccc4C)nn23)cc1	-11	1	-8	-8	2350	4	-2.3
CC(=O)N1CCN(C(=O)COC(=O)/C=C/c2ccc(C(F)(F)F)cc2)CC1	-3	-5	4	/	3991	-4	2.1
CCOc1ccc(NC(=O)CCC(=O)N/N=C(\C)c2cccs2)cc1	-5	/	/	5	5651	/	/
CCCNC(=O)CSc1nccn1Cc1ccco1	-23	16	3	-5	4438	6	16
Cc1nn(CC2CC2)c(=O)n1N(C)c1ncc(C(F)(F)F)cc1Cl	-6	15	2	3	4276	13	6.3
O=C(NC1CC1)c1ccc(C2SCC(=O)N2Cc2ccccc2)cc1 (configuration not stated)	-24	11	-5	-3	2058	-1	2.9
O=S(=O)(Nc1cccc(-c2cn3c(n2)SCC3)c1)c1ccccc1F	-19	1	8	-9	6072	-24	-0.9
CCn1c(/C=N/Nc2ccc(C(=O)O)cc2)nc2ccccc21	6	/	/	-7	2068	/	/
O=C(NCCS(=O)(=O)N1CCN(c2ccccc2F)CC1)c1cccs1	-6	4	2	11	?	2	2.3
Cc1cn(C2OC[C@@H](O)[C@@H]2CO)c(=O)[nH]c1=O (some centres not stated)	-3	15	12	-26	3660	-1	1.6
CC(=O)NC12CC3CC(C1)CC(C(=O)OCC(=O)Nc1ncc(Cl)c(C)c1Cl)(C3)C2	-25	2	7	-1	3449	1	10
Cc1ccc(C)c(S(=O)(=O)N2CCN(C(=O)CNC(=O)c3sc4ccccc4c3Cl)CC2)c1	-14	-1	1	/	3756	0	4.3
COc1ccc(CNc2cc(C)ccn2)cc1	-6	-17	-11	-4	3048	0	2.4
O=S(=O)(/N=C(/c1ccc(F)cc1)N1CCCCC1)c1ccc(Cl)cc1	-22	/	/	-1	6541	/	/
Oc1ccccc1-c1cc(C(F)(F)F)nc(-c2ccccc2)n1	-9	15	-1	-3	2511	30	3.4

# (further entries)
smiles	PrP UTR inh	Mtb hypoxia inh	Mtb hypoxia inh growth	BJeLR lethal	Autofluor counter	ugtP null kill	Sa RN4220 lethal
Cc1cc(C(C)(C)C)cc(C)c1S(=O)(=O)N1CCN(C(=O)c2cc([N+](=O)[O-])c[nH]c2=O)CC1	-28	6	1	-2	3714	0	5.1
CCn1c(SCC(=O)N/N=C/C=C\c2ccccc2[N+](=O)[O-])nc2ccccc21	10	/	/	5	22694*	/	/
O=C(CCN1CCCCC1)N/N=C/c1c[nH]c2ccccc12	-2	/	/	-2	4370	/	/
Cc1cc(C)c(C)c(OCCCCn2cnc3ccccc3c2=O)c1	-10	-1	-1	-7	23324*	15	7.8
N#C/C(=C/c1ccc(CNS(=O)(=O)c2ccccc2)o1)C(N)=O	14	2	8	1	1872	3	3.7
O=C1NC(=O)C(Cc2cccc(Oc3ccccc3)c2)S1 (configuration not stated)	-14	8	7	4	4118	-2	8.0
Cc1nn2c(COc3ccc(NC(=O)c4ccccc4Cl)cc3)nnc2c2ccccc12	-31	-8	-4	-6	1976	-5	-1.8
Cc1nccn1CC(=O)NN=Cc1cccs1	/	-5	10	/	/	3	0.2
Cc1ccc(/C=N/Nc2cn[nH]c(=O)n2)o1	-30	/	/	10	2543	/	/
CSc1cccc(NC(=O)CN(c2ccc(C)cc2C)S(C)(=O)=O)c1	-12	5	2	-8	/	-6	5.6
CC(=O)c1c(C)nc2nonc2c1N	-19	4	4	1	3406	-6	-18
Cc1cc(C)c(C#N)c(SCC2COc3ccccc3O2)n1 (configuration not stated)	-14	1	8	-9	3218	3	-4.4
O=c1c2ccccc2oc2cc(OCc3ccc(F)cc3)cc(O)c12	-16	8	2	3	3703	4	-1.6
Cn1ccnc1SCC(=O)N1CCc2ccccc21	-9	2	-3	-2	4589	5	3.2
CC(C)N1CCN(Cc2ccc3c(c2)Cc2ccccc2-3)CC1CCO (configuration not stated)	-4	9	2	-5	2015	3	-2.0
CCOc1ccc(S(=O)(=O)N2CCN(C(=O)c3cc4c(s3)CCCC4)CC2)cc1	6	-5	8	-10	2633	-11	1.7
c1ccc(-c2nc3ccccc3[nH]2)cc1	-43	4	1	6	5600	-1	5.3
CC(=O)c1c(C)nc(-c2ccccc2)nc1NC(=O)C(C)C	-11	12	7	2	3403	-2	9.9
CC(=O)c1cccc(NC(=O)c2cc(-c3ccco3)on2)c1	0	13	7	-6	6096	12	4.1
CNc1snc(C)c1C(=O)OC(C)C(=O)Nc1cccc(C)c1 (configuration not stated)	3	-1	9	/	3549	-1	1.5
Cc1cccc(Nc2nc(NCCO)nc(N3CCCC3)n2)c1	-10	-1	0	-5	2986	6	5.0
COc1cccc(-c2cc(C(=O)N3CCCCCC3)no2)c1	-25	6	4	1	4682	7	8.2
Cc1cc(NC(=O)C(C)SCC(=O)OCC(=O)N(C)c2ccccc2)no1 (configuration not stated)	-35	6	2	2	4716	4	0.3
CCC(C)c1ccc(S(=O)(=O)N2CCN(C(C)C(=O)NC3CCCC3)CC2)cc1 (configuration not stated)	-23	1	6	/	6453	6	-4.1
O=C(COC(=O)Cc1ccc(Cl)cc1)Nc1ccc(OC(F)F)cc1	-5	8	2	-3	4695	-6	1.7
CCCn1c(Cc2ccccc2)n[nH]c1=S	-5	13	1	8	2810	-1	-8.6
COc1ccc(NC(=O)CN(C)CC(=O)Nc2cccc(F)c2)cc1Cl	6	2	2	-10	3233	11	4.7
Cn1c(O)c(/C=N/c2ccccn2)c(=O)n(C)c1=O	-24	6	5	2	8155	13	4.9
CSCCC(NC(=O)/C(=C/c1ccc2c(c1)OCO2)NC(=O)c1cccc([N+](=O)[O-])c1)C(=O)O (configuration not stated)	-24&2	5	-11	7	1999	-7	-3.8
OCC1(Cc2ccc(F)cc2F)CCCN(CCCc2ccccc2)C1 (configuration not stated)	-6	0	14	0	4922	4	-0.2

# Next entries.
smiles	PrP UTR inh	Mtb hypoxia inh	Mtb hypoxia inh growth	BJeLR lethal	Autofluor counter	ugtP null kill	Sa RN4220 lethal
COc1cc(C(=O)N(c2ccc(C)c(C)c2)C2C=CS(=O)(=O)C2)cc(OC)c1OC (configuration not stated)	-26	3	6	-1	4289	5	13
CC(C)OCCCNC(=O)c1c(N)n(N=Cc2ccccn2)c2nc3ccccc3nc12	/	0	10	/	/	0	9.3
COc1ccccc1C(=O)OCC(=O)NC1CCCC1	/	1	3	-5	3394	14	5.6
O=C(NN=Cc1ccccn1)c1ccc([N+](=O)[O-])cc1	/	-3	11	/	/	5	0.1
COC(=O)c1ccc(COc2ccc(C=NNc3nc(C)cc(=O)[nH]3)cc2)cc1	/	-8	-13	/	/	-8	2.1
CCOc1ccc(C(=O)NCC(=O)NCC(c2ccco2)N2CCCCC2)cc1 (configuration not stated)	-30	6	4	/	4060	7	4.6
Cc1cc(N2CCOCC2)n2nc(C)c(-c3ccc(Cl)cc3)c2n1	-24	-5	6	-3	3662	17	2.9
C#CCOCCOCCOCCNc1nc(N2CCOCC2)nc(N2CCN(C(=O)C(CC(N)=O)n3cc(C(N)C(C)CC)nn3)CC2)n1 (configuration not stated)	/	7	6	/	/	2	7.1
Nc1n[nH]c2cc(=O)n(-c3ccc(Cl)cc3)nc12	-13	4	4	-11	2099	0	1.9
O=C(Nc1ccccc1)C1CCCCC1	-1	4	12	-11	21764*	-4	2.6
CC(C)(C)c1ccc(C(=O)N2CCC(C(=O)N3CCCCC3)CC2)cc1	-17	15	5	0	5392	3	3.6
CCN(CCn1cccn1)Cc1cn[nH]c1-c1cccc2ccccc12	-18	4	4	9	5582	10	3.9
COC(=O)c1ccccc1OP(=O)(c1cccc([N+](=O)[O-])c1)c1cccc([N+](=O)[O-])c1	-26	15	0	-12	5504	13	2.1
NS(=O)(=O)c1ccc(NC(=O)CN2CCN(S(=O)(=O)c3ccc(F)cc3)CC2)cc1	-5	0	1	-2	6096	-8	3.9
CC(C)(C)c1ccc(C(=O)c2c[nH]c(C(=O)NCCc3ccccn3)c2)cc1	-19	-4	-7	-5	4506	-1	0.6
CCn1c(-c2ccc(N(C)C)cc2)nc2ccccc21	-44	-1	15	10	4130	11	7.4
Cc1sc2ncnc(N3CCC(C(=O)Nc4ccc(Br)cc4Br)CC3)c2c1C	-4	/	/	-1	?	/	/
CCCCn1cnc2cc(C)c(C)cc21	-15	5	-4	6	3514	0	6.1
Cc1cc(-c2ccc(C(C)C)c(S(=O)(=O)Nc3ccccn3)c2)on1	-31	-5	1	4	5573	-3	5.5
CCOc1ccc(C2N(c3ccc(F)cc3)C(=O)C3CCCN32)cc1 (configuration not stated)	-40	/	/	-7	8791	9	0.5
CC(C)C(=O)N1CCN(c2ccccc2NC(=O)c2ccc([N+](=O)[O-])o2)CC1	-16	/	/	3	5174	/	/
O=C(O)C1=CC[C@@H](c2ccc(Cl)cc2)N(S(=O)(=O)c2ccc(Cl)cc2)[C@H]1c1ccc(Br)cc1	11	0	-4	/	3449	53	66
CC(C)NC(=S)NN=C1CCCCCCCCCCC1	-2	2	11	4	3935	7	4.5
CC(C)c1ccc(OCC(O)CN2CCN(c3ccccn3)CC2)cc1 (configuration not stated)	-19	-2	12	0	3479	10	-0.9
COc1ccc(NC(=O)c2c3c(nc4ccccc24)CCN(Cc2ccccc2)C3)c(OC)c1	-5	12	10	5	4871	13	3.6
Cc1nonc1CN(C)C(=O)CC1C(=O)NCCN1Cc1cccc(C(F)(F)F)c1 (configuration not stated)	-13	-3	-1	3	3792	-8	-2.0
CCOc1ccc(-c2noc(CCC(=O)NC3CCCC3)n2)cc1OC	1	-1	2	0	4234	3	-3.9

# Profiles from above.
# CC(C)(C)c1ccc(C(=O)c2c[nH]c(C(=O)NCCc3ccccn3)c2)cc1 across the screens: PrP UTR inh: -19; Mtb hypoxia inh: -4; Mtb hypoxia inh growth: -7; BJeLR lethal: -5; Autofluor counter: 4506; ugtP null kill: -1; Sa RN4220 lethal: 0.6
# O=C(O)C1=CC[C@@H](c2ccc(Cl)cc2)N(S(=O)(=O)c2ccc(Cl)cc2)[C@H]1c1ccc(Br)cc1 across the screens: PrP UTR inh: 11; Mtb hypoxia inh: 0; Mtb hypoxia inh growth: -4; BJeLR lethal: /; Autofluor counter: 3449; ugtP null kill: 53; Sa RN4220 lethal: 66
